MbtI inh: MbtI salicylate synthase inhibitors, primary screen, biochemical, fluorescence intensity. purified MbtI enzyme, fluorescence intensity read-out. inhibition, %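 (about 17 µg/mL by stock and volumes)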. 0.89% of 100,000 active. AID 493033, 2011;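 active = above 50% in both replicates, above 80% if mildly self-fluorescent; inactive = the rest, strongly fluorescent compounds included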;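 also: 0% = mean of negative and 100% = mean of positive controls; one replicate is shown; some compounds called inactive have numbers as strong as hits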
PV pol inh: poliovirus RdRp elongation inhibitors, primary screen, biochemical, fluorescence polarization, total intensity; Genome polyprotein (Poliovirus type 1 (strain Mahoney)), P03300; poliovirus polymerase elongation; stronger effect = lower value; % elongation, % (compound at 16.7 µg/mL); 0.66% of 150,000 active; AID 588519, 2011; in the data active = % elongation below about 90%; also: some results filed as inactive read as strong as hits
Target sequence (P03300 1749-2209 limits assumed): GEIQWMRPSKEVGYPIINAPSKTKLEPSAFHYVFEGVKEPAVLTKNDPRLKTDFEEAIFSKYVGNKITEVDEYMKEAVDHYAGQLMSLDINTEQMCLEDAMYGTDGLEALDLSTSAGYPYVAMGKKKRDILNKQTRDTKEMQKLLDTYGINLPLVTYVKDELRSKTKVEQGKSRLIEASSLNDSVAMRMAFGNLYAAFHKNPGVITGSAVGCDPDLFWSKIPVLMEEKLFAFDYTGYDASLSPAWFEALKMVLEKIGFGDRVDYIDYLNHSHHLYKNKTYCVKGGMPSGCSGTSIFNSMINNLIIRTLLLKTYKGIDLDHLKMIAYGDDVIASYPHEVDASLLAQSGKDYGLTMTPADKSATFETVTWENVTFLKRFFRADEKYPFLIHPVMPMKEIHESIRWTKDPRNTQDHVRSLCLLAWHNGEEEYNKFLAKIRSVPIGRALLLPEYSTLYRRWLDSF
Mtb MenB inh: M. tuberculosis MenB inhibitors, primary screen, biochemical, absorbance. MenB enzyme assay, absorbance read-out; some hits fall short of the stated cut. inhibition, %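 (about 12 µg/mL by stock and volumes)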. 0.43% of 100,000 active. AID 540299, 2011;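 active = mean of two replicates above 30%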;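 also: 0% = no compound and 100% = wells with inactive enzyme; the first replicate is given; strong numbers were not always called active; inactives centre near -10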
Target sequence (P9WNP5 whole entry, looked up): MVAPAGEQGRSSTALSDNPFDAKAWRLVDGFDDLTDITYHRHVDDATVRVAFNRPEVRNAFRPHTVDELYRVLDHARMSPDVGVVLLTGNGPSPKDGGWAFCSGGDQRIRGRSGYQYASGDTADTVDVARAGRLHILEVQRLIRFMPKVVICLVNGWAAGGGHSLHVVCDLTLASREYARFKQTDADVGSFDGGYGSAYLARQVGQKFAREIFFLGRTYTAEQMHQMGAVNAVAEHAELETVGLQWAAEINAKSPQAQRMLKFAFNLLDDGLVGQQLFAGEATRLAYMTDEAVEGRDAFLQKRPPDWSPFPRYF
PV pol inh intensity: further read-out of PV pol inh, marked with its call; % elongation; measured here: total intensity read-out; formula for this scale not given here;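 total fluorescence in place of polarization; lower means less elongation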
* hit, by the source's call; . = no result given.

SMILES	MbtI inh	PV pol inh	PV pol inh intensity	Mtb MenB inh
CCN=PN1CCN(P(=NCC)(N(CC)CC)N(CC)CC)CC1 (configuration not stated)	10	103	98	5
Cc1onc(-c2ccccc2Cl)c1-c1nc2ccc(I)cc2c(=O)o1	-1	105	109	-10
CC1Cc2ccccc2N1S(=O)(=O)c1cccc(C(=O)C(C#N)c2ccccn2)c1 (configuration not stated)	-31	106	98	10
COCCN(Cc1ccccc1)S(=O)(=O)c1ccccc1OC	-12	101	106	-9
O=C1c2ccccc2C(=O)N1CC#CCN1CCN(CC#CCN2C(=O)c3ccccc3C2=O)CC1	9	100	103	10
N#CCCn1c(C2CCCCC2)nc2ccccc21	.	101	105	-14
O=C1NN=CC(c2ccccc2)(c2c[nH]c3ccccc23)N1 (configuration not stated)	-1	103	110	-33
C(=C\c1ccccc1)/CNCCN1CCOCC1	-10	104	101	-43
N#Cc1cc(C(=O)c2ccccc2O)cn2c(=O)c3ccccc3nc12	18	44	244	-27
CCOC(=O)C[n+]1ccccc1C	-2	101	101	6
COc1ccccc1-n1cnnc1SC(C)C(=O)NCCC1=CCCCC1 (configuration not stated)	9	102	100	4
O=C(COc1ncnc2ccccc12)Nc1cccc(C(F)(F)F)c1	-13	101	105	.
O=C1NNC(c2ccccc2)=N/C1=C\c1ccco1	25	103	106	-46
Cc1cc(OC(C)C(=O)Nc2ncn[nH]2)ccc1Cl (configuration not stated)	-14	102	105	-7
CCN(CC)CCOc1ccc(/C(=C(/Cl)c2ccccc2)c2ccccc2)cc1	-5	102	101	3
CN1N=C(c2ccc3ccccc3c2)CC1c1ccc(F)cc1 (configuration not stated)	102	104	112	-11
O=S(=O)(Nc1ccccn1)c1ccccc1	.	96	101	8
COc1cc(C(=O)Oc2ccc(C#N)cc2)cc(OC)c1OC	-11	99	105	8
CN(C)c1nc(-c2cn(CCC#N)c3ccccc23)cs1	1	102	107	-45
CN(C)C(=O)/C=C\c1cn(-c2ccccc2)nc1-c1ccc2c(c1)OCCO2	-10	102	105	.
N#C/C(=C\C1CC=CCC1)c1nc2ccccc2c(=O)[nH]1 (configuration not stated)	18	104	106	5
CCC(=O)N1CCc2cc(S(=O)(=O)CCC(=O)N3CC(=O)N(CCc4ccccc4)C(=O)C3)ccc21	0	100	105	-4
c1ccc2c(c1)nnn2C12CC3CC(CC(C3)C1)C2	-8	102	105	3
NC(N)=Nc1nc2ccccc2s1	19	103	97	14
COc1ccc(-c2noc(CN3C(=O)c4ccccc4C3=O)n2)cc1	-9	104	100	-35
Cc1noc2ncnc(SCc3ccc(C(F)(F)F)cc3)c12	-15	104	98	-15
CNC(=S)N(Cc1cccnc1)Cc1cc2cc(OC)ccc2[nH]c1=O	-41	105	102	11
CC1CCCCC1N(C)C1CCN(CCCNC(=O)/C=C/c2cccc(C(F)(F)F)c2)CC1 (configuration not stated)	-7	102	107	-17
CN(CC(=O)N1CCC(C(N)=O)CC1)S(=O)(=O)c1ccc(Br)cc1	-5	100	102	-14
COc1ccc(C=NNC(=O)Cn2cnc3c(=O)n(C)c(=O)n(C)c32)cc1	0	103	102	1

(continued)
SMILES	MbtI inh	PV pol inh	PV pol inh intensity	Mtb MenB inh
COc1ccc(CC(=O)n2nc(-c3ccc(F)cc3)cc2SC)cc1OC	-6	101	94	-13
CCn1cc2c(n1)-c1c(oc(C(=O)N3CCc4ccccc4C3)c1C)CC2	69	103	98	-4
Cc1ccc(Cn2c(=O)c3ccccc3n3c(SCC(N)=O)nnc23)cc1	31	99	97	-11
COc1ccccc1NC(=O)CC(C)(C)C	4	102	101	-9
Cn1c(N/C(=C/C(=O)c2cccs2)C(F)(F)F)nc2ccccc21	21	106	110	14
Cc1ccc(CN(C)C(=S)Nc2cccc(C(F)(F)F)c2)o1	14	101	108	-15
CCOc1cccc(=O)c2c(C)n(-c3ccc(OC)cc3)c(C)c12	.	127	191	-44
CCCC(=O)Nc1ccc(C(=O)NN)cc1	-2	104	108	-16
CCC(c1ccccc1)c1nc(-c2ccccc2)no1 (configuration not stated)	-8	101	103	-18
COc1ccc(-c2csc(/C(C#N)=C(\O)CSc3nnc(-c4ccccc4F)n3C3CC3)n2)cc1OC	1	99	106	-15
Cc1ccc(-n2nc(C)c3onc(C)c3c2=O)cc1	5	101	96	-14
CC1CCCN(C(=O)COc2ccc(-c3ccccc3)cc2)C1 (configuration not stated)	-8	103	104	.
CC(C)CC(=O)Nc1cc(Cl)ccc1Cl	-3	99	101	-14
CC12CCC3C(CCC4CC(N)CCC43C)C1CCC2O (configuration not stated)	-10	105	100	-59
COc1ccc(C(=O)OCc2c(C)noc2C)cc1S(=O)(=O)NCc1ccc(Cl)cc1	-6	.	.	-35
O=C(/C=C/c1ccco1)Nc1cccc2cccnc12	11	99	115	-12
N#CC(C#N)=CNNc1ncnc2sccc12	17	101	104	14
O=C(NCc1ccccc1Cl)C1CC1	-1	101	103	-13
C#CCn1c(=NC(=O)CSCC(=O)N2CCCC2)sc2ccccc21	4	101	106	-23
Cc1ccccc1Cn1nc(-c2ccco2)ccc1=O	69	105	98	-6
COc1ccc(CNC(=O)CN(C)Cc2ccccc2F)cc1OC	-10	105	108	-31
O=C(Cn1cnc2c(nnn2Cc2ccc(Cl)cc2)c1=O)NCc1ccc2c(c1)OCO2	2	98	101	-14
CC(C)CC(NC(=O)c1ccco1)C(=O)O (configuration not stated)	-7	105	100	-23
COc1ccc(C(=O)COC(=O)CCn2c(C)csc2=O)c(OC)c1	12	100	102	-35
COc1cccc(NC2=NC3(CCCC3)N=C(N)N2)c1	28	100	106	-16
O=C(CSC1CC(=O)N(c2ccccc2)C1=O)Nc1ccc(F)cc1 (configuration not stated)	29	102	99	11
CCN(CC)S(=O)(=O)c1ccc(NC(=O)CSc2nncn2-c2ccccc2)cc1	-13	107	111	0
CCC(C)Nc1ncnc2c1oc1ccccc12 (configuration not stated)	8	100	107	.
CN(C(=O)Nc1noc2c1COc1ccccc1-2)C1CCCCC1	-20	103	101	-15
COc1ccc(NC(=O)C2=Cc3cccc(OC)c3OC2)cc1	7	101	106	-2

New compounds follow.
SMILES	MbtI inh	PV pol inh	PV pol inh intensity	Mtb MenB inh
Cc1ccc(-c2nc3cnccn3c2NC2CCCCC2)o1	27	79	132	-19
O=C(N/C(=C\c1ccco1)C(=O)N1CCCC1)c1ccccc1	47	102	104	23
COCCN1C(=O)C(=O)/C(=C(/O)c2ccccc2)C1c1ccccc1 (configuration not stated)	-24	99	100	-4
COc1cc(C(=O)OC2CC3CCC(C2)N3C)ccc1O (configuration not stated)	-4	100	98	-3
C=CCNC(=O)c1ccc(-c2ccccc2)cc1	-9	98	104	1
CC(=O)Nc1ccc(N2CCOCC2)c(Cl)c1	-7	106	102	-52
COc1ccc(CCCc2nnc(SCC(=O)NN)o2)cc1	0	103	103	-6
C=CCn1c(SCc2cn3ccccc3n2)nnc1-c1cccc(S(=O)(=O)N(CC)CC)c1	-1	99	96	-30
CCCOc1ccc(C(=O)CCN(C)C)cc1	59*	97	104	-57
COCc1cc(C)nc(SCC(=O)N2CCCCC2)c1C#N	.	104	111	-12
CCc1cccc(Nc2ncnc3c2nc2n3CCCCC2)c1	-179	102	105	8
CC(C)(C)C(=O)NCc1cn2ccsc2n1	-8	103	108	-11
COC(=O)c1ccc(S(=O)(=O)N2CCC(O)CC2)n1C	0	101	99	-9
CSc1nnc([C@H](C)NC(=O)OC(C)(C)C)o1	2	102	103	3
CCOc1ccc(C2C(C(=O)OC)=CN(CC(C)C)C=C2C(=O)OC)cc1OC	-184	102	101	-78
Cc1cc(C)c(C(=O)CSC2=NC(N)=C(C#N)C3(CCCCC3)C2C(N)=O)cc1C (configuration not stated)	4	102	102	-47
Cc1nn(S(=O)(=O)c2ccc(Cl)cc2)cc1-c1nsc(Nc2ccccc2)n1	7	102	105	-28
O=C(/C=C/C=C/c1ccccc1)c1ccncc1	30	99	102	-115
COc1cc(CC(=O)NC2CCC(C)CC2)cc(OC)c1OC (configuration not stated)	2	102	98	15
O=C(CN1CSCC1=O)Nc1cc(C(F)(F)F)ccc1NC1CCCCC1	5	101	96	-24
C/C(=N\NC(=O)CNc1ccccc1)c1ccccc1	-5	104	102	-5
COc1ccc2[nH]c3nc(SCC(=O)NC(C)(C)C)nnc3c2c1	-8	103	103	-5
Cc1c(Cl)cccc1NC(=S)N1CCCN(c2nc3ccc(Cl)cc3s2)CC1	-4	109	109	-35
Cc1c(N)cc(N)cc1C(=O)O	-52	100	108	-61
O=C(O)CCS(=O)(=O)c1ccc2ccccc2c1	.	102	105	0
CC(C)(C)C(=O)/C=C1\NC(=O)CS1	6	102	99	.
Cc1nnc(SCC(=O)Nc2ccccc2S(=O)(=O)N(C)C2CCCCC2)n1-c1ccccc1	-3	101	108	-22
COC(=O)Cn1c(CCS(=O)(=O)c2ccc(C)cc2)nc2ccccc21	3	102	102	8
COC(=O)c1cn(C)c2ccc(S(=O)(=O)N(C)C3CCCCC3)cc2c1=O	7	103	103	-4
CC(C)c1cccc(C(C)C)c1NC(=O)COC(=O)/C=C/c1ccco1	-5	98	96	.

Entries of single compounds as entered above:
Results for COC(=O)c1ccc(S(=O)(=O)N2CCC(O)CC2)n1C : MbtI inh = 0; PV pol inh = 101; PV pol inh intensity = 99; Mtb MenB inh = -9
Results for CC(C)(C)C(=O)NCc1cn2ccsc2n1 : MbtI inh = -8; PV pol inh = 103; PV pol inh intensity = 108; Mtb MenB inh = -11

Of the compounds above, these contain a tert-butyl group.
SMILES	MbtI inh	PV pol inh	PV pol inh intensity	Mtb MenB inh
COc1ccccc1NC(=O)CC(C)(C)C	4	102	101	-9
CC(C)(C)C(=O)NCc1cn2ccsc2n1	-8	103	108	-11
CSc1nnc([C@H](C)NC(=O)OC(C)(C)C)o1	2	102	103	3
COc1ccc2[nH]c3nc(SCC(=O)NC(C)(C)C)nnc3c2c1	-8	103	103	-5
CC(C)(C)C(=O)/C=C1\NC(=O)CS1	6	102	99	.

New compounds follow
SMILES	MbtI inh	PV pol inh	PV pol inh intensity	Mtb MenB inh
CCN1CSC(=S)N(CC)C1	-6	101	104	-17
CCOC(=O)c1ccc2c(c1)c(C)c(C)n2C	7	104	104	-6
CC(C)=C1C(=O)Nc2ccc(S(=O)(=O)N3CCc4ccccc43)cc21	3	104	103	-11
Cc1ccccc1NC(=O)Nc1c(C)n(-c2ccccc2)c(=O)n1C	-11	99	101	1
COc1ccc(Nc2[nH]nc(NC(=O)CC3CC4CCC3C4)c2C#N)cc1 (configuration not stated)	0	97	97	-9
O=C(N1CCN2CCCC2C1)C(F)(F)C(F)(F)C(F)(F)C(F)(F)F (configuration not stated)	-10	99	103	-3
Clc1ccc(CSCc2ccc(-c3csnn3)cc2)cc1	-14	102	107	5
O=C(CCCN1C(=O)/C(=C\c2cccs2)SC1=S)Nc1ccc(O)cc1	-3	102	108	-93
CCCCC(C(=O)N1CCCCC1)N1C(=O)c2ccccc2C1=O (configuration not stated)	-4	103	107	-32
COC(=O)Cc1cc(=O)n2[nH]cnc2n1	4	100	100	-17
CCS(=O)(=O)c1ccc2oc(C)nc2c1	0	101	108	1
CCCCn1c(COC)nc2ccccc21	-13	103	107	-9
O=C(Nc1nc2c(s1)COc1ccccc1-2)c1ccc2ncsc2c1	9	102	101	-30
CCN1C(=O)C(C)S/C1=N\S(=O)(=O)c1ccc(F)cc1 (configuration not stated)	-5	108	105	-35
N#CC(c1ccc2c(c1)OCO2)N(Cc1ccccc1)C(=O)c1sc2ccccc2c1Cl (configuration not stated)	-8	108	108	-14
COc1ccccc1/C=N\NC(=O)c1ccccn1	3	101	101	-16
COCCn1c(SCC(=O)c2c[nH]c3ccccc23)nc2ccccc2c1=O	-5	103	93	-20
Cc1ccc(CS(=O)(=O)Cc2ccc(C(=O)N3CCC4(CC3)OCCO4)o2)cc1	17	101	97	12
CCOC(=O)Nc1ccc2c(c1)N(C(=O)CCN1CCOCC1)c1ccccc1CC2	0	101	101	3
COc1cc2c(cc1OC)C1(NCC2)C(=O)Nc2ccccc21 (configuration not stated)	-9	100	103	11
CCOC(=O)/C(C#N)=C\c1ccc2c(c1)OCO2	4	105	99	-20
Fc1ccccc1Cn1cnc2ccccc21	.	100	106	-11
CCCNC(=O)c1cc(S(=O)(=O)N2CCc3ccccc32)cn1C	-3	100	107	12
Brc1ccc(OCCn2cnc3ccccc32)cc1	1	98	101	-29
CC(C)N1CC(COc2ccccc2)OC1=O (configuration not stated)	.	106	110	-21
Cc1csc(NC(=O)CSc2nnc(CCNC(=O)c3ccc(Cl)c(Cl)c3)n2C)n1	-14	104	101	-29
O=C(Cc1ccccc1)Nc1nnc(-c2ccco2)o1	8	100	102	-9
CCC1(C)OC(=O)N2CCc3ccccc3C21C (configuration not stated)	.	106	113	-9
CSc1nc2n(n1)C(C(C)C)C(C(=O)Nc1ccc(Cl)cc1)=C(C)N2 (configuration not stated)	9	102	95	-23

Screening data deposited in PubChem by ICCB-Longwood Screening Facility, Harvard Medical School.
